eIF4H FP inh: inhibitors of RNA binding by human eIF4H; inhibition, % at 35 µM; eIF4H fluorescence polarization binding assay; Q15056; 0.94% of 290,000 active;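 active = 50% or more with normal probe brightness, or confirmed in later tests; about a fifth of its hits are not listed in these tables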;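 note: calls also rest on retests at 20 µM and on dose response follow-up; 0% = protein and probe with vehicle and 100% = probe without protein; strong numbers were not always called active; many hits fall short of the cut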
UUG fidelity: alters start codon recognition fidelity in yeast | S. cerevisiae UUG-firefly luciferase reporter, luminescence/redox ratio | activity score, % at 18.7 µM | 0.13% of 350,000 active | AID 602363;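 active = replicate mean at a twofold rise or more, about +100% in these data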;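 note: firefly luciferase made from a UUG start codon reports start codon fidelity; reporter light over untreated wells divided by growth signal over untreated wells; some hits fall short of that in this replicate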
PABP polyA inh: PABP-poly(A) binding inhibition | inhibition, % at 35 µM | PABP-poly(A) RNA binding, fluorescence polarization | P11940 | AID 2014 | 1% of 290,000 active;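 active = 50% or more with normal probe brightness, or confirmed in later tests; about a fifth of its hits are not listed in these tables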;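 note: calls also rest on retests at 20 µM and on dose response follow-up; controls were probe without protein and protein plus probe with vehicle; some compounds called inactive have numbers as strong as hits; many hits fall short of the cut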
Target sequence (P11940 whole entry, looked up): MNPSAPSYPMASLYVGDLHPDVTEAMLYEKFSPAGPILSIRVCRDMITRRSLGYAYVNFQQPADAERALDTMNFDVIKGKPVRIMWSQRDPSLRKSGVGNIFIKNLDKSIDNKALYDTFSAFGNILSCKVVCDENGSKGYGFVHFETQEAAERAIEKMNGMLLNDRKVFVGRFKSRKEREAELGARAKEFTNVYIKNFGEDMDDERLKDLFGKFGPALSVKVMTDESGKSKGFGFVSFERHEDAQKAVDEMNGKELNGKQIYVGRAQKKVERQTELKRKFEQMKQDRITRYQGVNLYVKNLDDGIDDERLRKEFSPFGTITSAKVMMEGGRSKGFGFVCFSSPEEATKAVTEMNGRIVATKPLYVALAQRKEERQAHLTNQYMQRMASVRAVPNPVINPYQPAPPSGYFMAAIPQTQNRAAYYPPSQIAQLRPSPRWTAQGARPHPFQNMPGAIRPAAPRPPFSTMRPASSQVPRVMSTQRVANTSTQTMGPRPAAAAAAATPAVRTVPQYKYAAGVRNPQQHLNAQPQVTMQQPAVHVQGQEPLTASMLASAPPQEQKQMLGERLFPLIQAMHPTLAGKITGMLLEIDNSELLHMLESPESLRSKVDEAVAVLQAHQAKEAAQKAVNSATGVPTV
HIV Env fusion: HIV envelope-mediated fusion inhibition; HeLa-JRFL Env/CEM21 cell fusion, luciferase; inhibition, % at 12.3 µM; 1.1% of 360,000 active; AID 651610;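 active = mean replicate inhibition score of at least 50 and every replicate individually at or above 50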;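 note: 0% = plate neutral controls and 100% = maraviroc near 300 nM; one replicate is shown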
Rce1 inhib: inhibitors of yeast Ras-converting enzyme. calls only. 0.27% of 290,000 active. yeast membranes, quenched prenylated peptide cleavage fluorescence;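 active = fall in fluorescence gain of 50% or more versus controls, with final raw signal at or below 3038400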;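 note: plate controls were neutral control wells for no effect and wells lacking membranes for full effect; tested at 10 µM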
CSC inhib: cancer stem cell inhibition; cancer stem cell-like cells viability, luminescence; 1.1% of 300,000 active; AID 2717; inhibition, % at 7.5 µM;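 active = mean at 75% or more and at least half the replicates too; tested in HMLE shEcad cells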;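 note: 0% = median of negative and 100% = median of positive control wells; the first replicate is given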
MT1-MMP act inh: MT1-MMP (human) activation inhibition | P50281 | 0.061% of 360,000 active | GFP/RFP ratio change, % at 20 µM | HT1080 RFP-PRO-GFP cells, GFP/RFP ratio fluorescence, overnight; percent of plate control window, DMSO zero;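 active = GFP/RFP ratio change of at least 30% with cell ATP level not reduced by more than half and red fluorescence within 50% of control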; note: strong numbers were not always called active
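Assay system: HT1080 RFP-PRO-GFP cells | Dosing: 20 µM single dose, 1% DMSO | Incubation: Cells overnight before dosing, compound overnight, 37 °C, 5% CO2 | Evaluation: GFP/RFP fluorescence ratio | Control set: DMSO-only wells and HT1080 RFP-L50D-GFP cell wells as references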
eIF4H FP inh retest: second read-out of eIF4H FP inh, no call of its own (marks repeat the call); inhibition, %; compound at 20 µM; confirmation average;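 mean of two retest wells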
PABP polyA inh retest: also measured in PABP polyA inh; calls as there; inhibition, %; compound at 20 µM; confirmation repeats;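 mean of two retest wells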
MT1-MMP act inh RFP: second read-out of MT1-MMP act inh, no call of its own (marks repeat the call); RFP signal change, %; measured here: RFP expression control read;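 0 = vehicle wells; hits needed this value within 50% of zero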
* = called active by the depositor; i = inactive; . = not tested or not shown. Some of the compounds tested, so the mix of outcomes need not match the whole.

SMILES	eIF4H FP inh	UUG fidelity	PABP polyA inh	HIV Env fusion	Rce1 inhib	CSC inhib	MT1-MMP act inh	MT1-MMP act inh RFP	others
O=C(Nc1ccc(NC(=O)c2cc3ccccc3o2)cc1)c1ccco1	7	1	2	3	i	-10	4	-2
FC(F)(F)c1ccccc1NC(=S)Nn1cnnc1	-8	-16	-1	-10	i	7	0	4
CCn1ncc(/C=C/C(=O)Nc2c(C)nn(CC)c2C)c1C	0	-19	0	16	i	.	10	4
CC1CN(C(=S)SCCN2C(=O)CCC2=O)CC(C)O1 (stereo not given)	21	.	-1	2	.	-7	-2	2
COc1cc(OC)cc(C(=O)NCCOc2ccccc2)c1	-1	1	-13	.	i	-9	4	1
COc1ccccc1NC(=S)N1CCCc2ccccc21	9	-29	5	2	i	-5	3	4
CCCCn1c(N)c(N(CC)C(=O)CCc2ccccc2)c(=O)[nH]c1=O	8	.	-7	.	i	-1	3	9
N/C(=N\OC(=O)CN1C(=O)c2ccccc2C1=O)c1ccc(Br)cc1	2	.	-4	4	i	-7	-1	3
O=C(/C=C/c1ccc([N+](=O)[O-])cc1)NCCSc1ccccc1	2	.	3	-44	i	.	2	2
Nc1nc(CCl)nc(Nc2ccccc2)n1	-2	.	-4	2	i	-2	-1	0
O=C1c2ccccc2NC(c2ccccc2)N1c1ccc(O)cc1 (stereo not given)	4	0	-6	-69	i	13	8	2
O=C(c1cc(-c2cccs2)nc2ccccc12)N1CCN(c2ccccc2)CC1	5	.	11	2	i	.	-8	-8
C[C@H](NC(=O)c1nc[nH]c1C(=O)NCc1ccccc1)c1ccccc1	.	3	.	3	.	-5	3	-3
CCOC(=O)NNC(=O)C12CC3CC(CC(C3)C1)C2	-24	489*	6	6	i	5	1	-3
CCC(C)[C@H](NC(=O)N1CCN(c2cccc(C(F)(F)F)c2)CC1)C(=O)OC (stereo not given in full)	-4	9	0	.	i	-3	-1	-4
COc1ccccc1C(=O)NC(=S)Nc1cccnc1Cl	-5	-73	7	-36	.	-6	4	-1
COc1ccccc1C(=O)NCCn1ccc2ccccc21	-10	9	-8	.	i	6	-4	2
CC1CCN(S(=O)(=O)c2cc(C(=O)Nc3ccccn3)ccc2Br)CC1	.	.	.	.	i	-21	-4	-11
Cc1cc(-c2nnc(CCC(=O)N(C)CCc3ccccc3)o2)no1	13	-1	-3	-28	i	.	3	4
COc1ccccc1OC(=O)c1ccc(SC)cc1OC	9	-10	6	.	.	17	8	5
COc1cc(CNCCNC(=O)c2nonc2N)ccc1OCc1ccc(Cl)cc1	2	.	-14	7	i	26	-3	-8
CNS(=O)(=O)c1cccc(C(=O)NCC(C)(C)N2CCCCC2)c1	16	-10	1	-23	i	-2	1	1
CCN(C(=O)COC(=O)c1cc(S(=O)(=O)N2CCOCC2)c(Cl)cc1Cl)C1CCS(=O)(=O)C1 (stereo not given)	-1	.	9	10	i	-7	-1	-4
O=S1(=O)NC(CC2=CCCCC2)C2CCCCC2O1 (stereo not given)	-1	-11	-1	-5	i	-10	2	-3
NNC(=O)CN1C(=O)C2(OCCO2)c2ccccc21	.	-9	.	-2	.	.	1	6

Next section; it opens with the 2 that closed the last part.
SMILES	eIF4H FP inh	UUG fidelity	PABP polyA inh	HIV Env fusion	Rce1 inhib	CSC inhib	MT1-MMP act inh	MT1-MMP act inh RFP	others
O=S1(=O)NC(CC2=CCCCC2)C2CCCCC2O1 (stereo not given)	-1	-11	-1	-5	i	-10	2	-3
NNC(=O)CN1C(=O)C2(OCCO2)c2ccccc21	.	-9	.	-2	.	.	1	6
CC1CN(c2ccccc2)C(=O)CS1 (stereo not given)	0	-2	-8	15	i	-8	13	3
O=C(O)c1ccccc1S(=O)(=O)CC(=O)N1CCCCC1	-10	-9	6	-15	i	-3	2	5
CCOC(=O)c1c(NC(=O)C2CC(Cl)=CCC2C(=O)O)sc2c1CCCCC2 (stereo not given)	-3	-8	11	.	i	-1	2	1
COc1ccc(/C=C2\SC(=O)N(CCC(=O)N(C)C3CCS(=O)(=O)C3)C2=O)cc1 (stereo not given)	-8	-9	4	-14	i	-18	0	-3
O=C(/C=C/c1ccco1)Oc1cc(Br)cc(/C=N/NC(=O)c2ccccc2O)c1	22	-17	14	15	i	9	3	-7
O=C(CC1(O)C(=O)N(Cc2ccccc2Cl)c2ccccc21)c1ccco1 (stereo not given)	3	-12	7	-33	i	15	-1	2
COc1ccc(C(CNC(=O)c2cccc3cccnc23)N(C)C)cc1 (stereo not given)	-2	-15	-2	-3	.	-11	-4	0
CCOc1ccc(CNC(=O)CN2C(=O)CSc3ccc(S(=O)(=O)N4CCOCC4)cc32)cc1OC	-4	-19	-1	1	i	-6	-1	1
CC(=O)c1cccc(NC(=O)CSc2nnc(-c3ccc(S(=O)(=O)N4CCCC4)cc3)o2)c1	2	-15	1	-7	i	8	2	-1
CC1(C(=O)NS(=O)(=O)c2cccc(C#N)c2)CCN1C(=O)Cc1cc(F)ccc1F (stereo not given)	.	7	.	2	.	.	0	4
CCOc1ccc(N(C)C(=O)CCc2nnc3ccc(N4CCCC4)nn23)cc1	-5	-5	-2	6	i	-2	1	4
COc1ccc(-c2[nH]ncc2C2N=C(N)Nc3nc4ccccc4n32)cc1 (stereo not given)	3	-13	-6	-3	i	-1	2	-2
CCOC(=O)c1ccc(NC(=S)N(CCN(C)C)Cc2cccs2)cc1	3	.	12	13	i	27	7	7
COC(=O)C1=C(C)NC(=O)CC1c1ccccc1F (stereo not given)	15	-5	9	.	i	-8	4	8
Nc1ccccc1SC1CC(=O)N(c2ccc3c(c2)OCO3)C1=O (stereo not given)	0	-15	-5	7	i	3	2	3
COC(=O)c1cccc(NC2CC(=O)N(c3ccc(OC)c(OC)c3)C2=O)c1 (stereo not given)	2	-20	-4	-22	i	4	-2	1
Cc1cc(OC(=O)c2ccc(C(C)(C)C)cc2)c([N+](=O)[O-])c(=O)[nH]1	5	-8	-5	2	i	-6	3	5
Cc1ccc(NC(=O)CC2SCCNC2=O)cc1[N+](=O)[O-] (stereo not given)	6	.	4	2	i	5	-1	3
CCCCc1nnc(NC(=O)C(C)Sc2nc(O)c(Cc3ccccc3)c(=O)[nH]2)s1 (stereo not given)	3	-6	-8	-2	i	-6	2	4
O=C(CCc1ccccc1)NCc1ccc(F)cc1	-8	-26	4	-3	i	4	0	-5
CC(C)(O)C1=NOC(c2ccccc2)C1 (stereo not given)	13	5	5	-135	i	-4	-2	-3
CC(C)NC(=O)N(C)C[C@H]1Oc2ccc(NS(=O)(=O)c3ccccc3)cc2C(=O)N([C@H](C)CO)C[C@@H]1C	.	-7	.	12	.	.	1	3
CCOc1ccc(C(=O)NCC(=O)OCC(=O)N2C(C)CCCC2C)cc1 (stereo not given)	-1	-11	-10	-1	i	-3	1	5
CCCOc1c(Cl)cc(C(=O)NC)cc1OC	9	.	-9	-10	i	-8	-3	4
COc1cc(C(=O)Cc2nc3ccccc3n2C)cc(OC)c1OC	0	-22	-5	-16	i	1	1	-2
(list continues)
SMILES	eIF4H FP inh	UUG fidelity	PABP polyA inh	HIV Env fusion	Rce1 inhib	CSC inhib	MT1-MMP act inh	MT1-MMP act inh RFP	others
CCCCNC(=S)N(C)/N=C/c1ccc2c(c1)OCO2	1	.	-3	7	i	83*	-1	-3
CC1CN(C(=O)COC(=O)c2cc3ccccc3cc2O)CC(C)O1 (stereo not given)	.	-14	.	.	.	3	-1	-2
COc1cccc(CN(C)C(=O)c2cc(S(=O)(=O)N3CCCCCC3)ccc2OC)c1	.	4	.	7	.	.	5	-1
COc1cccc(C(C(=O)NC2CCCC2)N(C(=O)c2csnn2)C2CC2)c1 (stereo not given)	3	-5	8	2	i	-26	-1	1
Cc1ccn(CCC(=O)N2CCCC(CCC(=O)N3CCN(c4ccccn4)CC3)C2)n1 (stereo not given)	-10	-25	-9	-2	i	-19	-2	-2
N#Cc1ccc(C(=O)OCC(=O)NC(=O)NCc2ccccc2)cc1	.	-1	.	7	.	.	13	4
Cc1cccc(NC(=S)NC(=O)c2cccs2)n1	1	-33	2	-151	i	-9	-2	-1
C=CCn1c(C(CC)CC(C)(C)O)n[nH]c1=S (stereo not given)	-8	.	-2	-2	i	0	11	10
CC1(C2CC(=O)c3c(O)ccc(O)c3C2)OCCO1 (stereo not given)	.	-5	.	3	.	.	-1	-2
Cc1noc(C)c1NC(=O)N(C)C[C@H]1Oc2ccc(NS(=O)(=O)c3ccccc3)cc2C(=O)N([C@H](C)CO)C[C@@H]1C	.	-14	.	-3	.	-24	1	5
CC(NC(=O)[C@H](C)NC(=O)N1CCn2c1nc1ccccc12)c1ccccc1 (stereo not given in full)	0	-17	1	2	i	0	0	-1
COC(=O)c1cccc(NC(=S)N2CCN(c3ccccc3F)CC2)c1	2	-13	-3	15	i	8	0	0
O=C1CCC/C1=C\Nc1ccc(Cl)c([N+](=O)[O-])c1	-2	.	-1	-21	i	-2	3	-2
Cc1ccccc1/C=N/NC(=O)CSc1nc2ccccc2o1	8	.	-3	.	i	-7	4	3
O=C(COc1ccc(Cl)cc1)N1CCN(C(=O)c2ccccc2F)CC1	-2	-4	-7	-17	i	-15	1	2
O=C(Nc1ccc(Cl)c(S(=O)(=O)N2CCOCC2)c1)c1ccncc1	.	-15	.	-7	.	-6	3	-2
S=C(N/N=C/c1ccc2c(c1)OCO2)NC1CC2CCC1C2 (stereo not given)	3	-31	-7	2	i	51	4	-4
COc1ccc2nc(C)cc(SCC(=O)NNC(=O)COc3ccc(C)cc3)c2c1	-12	-9	-16	-41	i	-2	9	-2
COC(=O)c1ccc(C)c(NC(=O)CN(c2ccccc2)S(=O)(=O)N(C)C)c1	-9	.	-2	8	i	-1	3	5
CS(=O)(=O)N(CC(=O)Nc1ccccc1-c1ccccc1)c1ccccc1	-4	.	-12	-3	i	.	-3	-2
O=C(Nc1ccccc1O)N1c2ccccc2Sc2ccccc21	-12	-9	1	12	i	9	2	5
CC(=O)N1CCc2cc(S(=O)(=O)CCC(=O)N(C)Cc3ccco3)ccc21	-12	-9	-1	3	i	.	1	1
COc1cccc2cc(C(=O)NNC(=O)c3ccc(Br)cc3)c(=O)oc12	1	.	18	-22	i	-6	6	1
COc1ccc(OC)c(N=c2oc3c(OC)cccc3cc2C(=O)NCc2ccco2)c1	118*	1	114	-74	i	.	9	3	eIF4H FP inh retest=68*;PABP polyA inh retest=43
Cc1c(NC(=O)C(C)OC(=O)c2nc(Cl)ccc2Cl)c(=O)n(-c2ccccc2)n1C (stereo not given)	2	-11	16	20	i	5	-4	-2
CCOC(=O)c1c(C)[nH]c(C(=O)N2CCN(C(=O)OCC)CC2)c1C	-1	4	-6	6	i	-6	1	0
O=C1CC(=C(c2ccccc2)c2ccccc2)C(=O)N1CCCCN1CCN(c2ccccc2)CC1	-5	3	-8	.	i	9	2	-3
Cc1cc(NC(=O)Cn2nc(C)c([N+](=O)[O-])c2C)no1	-2	2	-4	5	i	-10	2	3
COc1ccc(C2=NS(=O)(=O)N(C)C(C(=O)NCc3ccc4c(c3)OCO4)=C2)cc1OC	4	-5	32	-6	i	4	0	0
CCCN1CCN(CCCNC(=O)Cn2ncc3c4ccccc4n(C)c3c2=O)CC1	-4	-19	-10	-20	i	-10	2	-1

A draw from above in order of molecular weight, ascending.
SMILES	eIF4H FP inh	UUG fidelity	PABP polyA inh	HIV Env fusion	Rce1 inhib	CSC inhib	MT1-MMP act inh	MT1-MMP act inh RFP	others
FC(F)(F)c1ccccc1NC(=S)Nn1cnnc1	-8	-16	-1	-10	i	7	0	4
CCOC(=O)c1c(NC(=O)C2CC(Cl)=CCC2C(=O)O)sc2c1CCCCC2 (stereo not given)	-3	-8	11	.	i	-1	2	1
COc1cccc(CN(C)C(=O)c2cc(S(=O)(=O)N3CCCCCC3)ccc2OC)c1	.	4	.	7	.	.	5	-1

Screening results as filed in PubChem.
